TRPML1 agonist: human mucolipin-1 channel agonism. Q9GZU1. TRPML1-expressing cells, Ca2+ dye fluorescence, FDSS; host cell line not named in the record; reference of the full effect not given here. activation, % (concentration not given with the values). 0.12% of 410,000 active. AID 624414; in the data active = activation above about 50%; inconclusive = about 30% to 50%; inactive = below about 30%; note: 0% is about no effect; the text of the record puts the active cut at 80%
Target sequence (Q9GZU1 whole entry, looked up): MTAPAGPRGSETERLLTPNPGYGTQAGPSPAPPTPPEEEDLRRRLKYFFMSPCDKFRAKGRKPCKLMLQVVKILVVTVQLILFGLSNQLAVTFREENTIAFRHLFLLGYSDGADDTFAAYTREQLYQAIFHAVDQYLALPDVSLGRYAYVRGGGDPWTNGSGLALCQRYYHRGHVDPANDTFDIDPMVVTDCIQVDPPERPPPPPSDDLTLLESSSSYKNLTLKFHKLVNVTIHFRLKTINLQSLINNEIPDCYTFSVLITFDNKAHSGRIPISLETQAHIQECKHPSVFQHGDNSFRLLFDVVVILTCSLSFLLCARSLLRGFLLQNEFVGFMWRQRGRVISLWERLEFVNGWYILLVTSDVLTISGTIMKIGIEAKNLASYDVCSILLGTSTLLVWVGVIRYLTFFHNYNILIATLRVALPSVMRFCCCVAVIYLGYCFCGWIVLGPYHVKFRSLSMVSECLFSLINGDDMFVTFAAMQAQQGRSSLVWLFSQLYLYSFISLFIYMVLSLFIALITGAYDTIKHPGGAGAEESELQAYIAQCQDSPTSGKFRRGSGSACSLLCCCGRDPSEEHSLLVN
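Cells: TRPML1-DL, 1X Tet inducer, ~16 h at 37 degrees C/5% CO2. Dye: ABD Ca8 no-wash + quencher, 45-90 min RT. Read: 10 s baseline, compound add, 110 s agonist phase; 54-4 EC80 (4uM final), 110 s antagonist phase.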
TRPML1 blocker: blocks the human TRPML1 channel; TRPML1-inducible cells, Ca2+ dye fluorescence, FDSS; stronger effect = lower value; inhibition of EC80 agonist-evoked calcium signal; activity change, negative = inhibition, % (no concentration beside the values); 0.02% of 390,000 active; in the data active means activity change below about -50%; inconclusive means about -30% to -50%; inactive means above about -30%;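 note: stimulus is agonist 54-4 at its EC80 concentration; % is set by controls: 0 for no effect and ±100 for the full control effect; compound concentration not given in the record; the text of the record puts the active cut at -80%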
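Tet-induced TRPML1-DL cells loaded with Ca8 no-wash calcium dye were read kinetically on FDSS. Compound addition was followed by EC80 agonist 54-4 (4 uM final); inhibition was read over 110 s.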
PINK1 modulator: changes PINK1 expression; PINK1 immunofluorescence, high-content cytometry, 24 h; Potency, µM (titrated, usually from 76.6 µM), for the others: at the highest dose activation (PINK1 increase), hits mostly activators; AID 624263; 0.2% of 410,000 active; active = well fitted activation curve with a large enough effect; inconclusive = small, poorly fitted or top-dose-only effect; inactive = flat fitted curve, though single readings scatter; cell line not stated here;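 note: potency is the fitted concentration of half-maximal effect; % of control where 0% means no effect; nearly all actives have a fitted effect of over 65% in size; a mitochondrial uncoupler was the plate control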
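Stable cell line treated 24 h with compounds at 5 concentrations (CCCP controls), then fixed and immunostained for PINK1 plus nuclear and cell stains; PINK1 immunofluorescence quantified by laser-scanning microplate cytometry.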
D2 ag: activates the human D2 dopamine receptor. DiscoveRx PathHunter D2 beta-arrestin, luminescence, 90 min; 100% = 57 uM dopamine signal. P14416. activation, % (concentration not given with the values). 0.084% of 360,000 active; in the data active = activation above about 40%; inconclusive = about 15% to 40%; inactive = below about 15%; note: compound concentration not given in the record; the text of the record calls up to 30% inactive
Target sequence (P14416 whole entry, looked up): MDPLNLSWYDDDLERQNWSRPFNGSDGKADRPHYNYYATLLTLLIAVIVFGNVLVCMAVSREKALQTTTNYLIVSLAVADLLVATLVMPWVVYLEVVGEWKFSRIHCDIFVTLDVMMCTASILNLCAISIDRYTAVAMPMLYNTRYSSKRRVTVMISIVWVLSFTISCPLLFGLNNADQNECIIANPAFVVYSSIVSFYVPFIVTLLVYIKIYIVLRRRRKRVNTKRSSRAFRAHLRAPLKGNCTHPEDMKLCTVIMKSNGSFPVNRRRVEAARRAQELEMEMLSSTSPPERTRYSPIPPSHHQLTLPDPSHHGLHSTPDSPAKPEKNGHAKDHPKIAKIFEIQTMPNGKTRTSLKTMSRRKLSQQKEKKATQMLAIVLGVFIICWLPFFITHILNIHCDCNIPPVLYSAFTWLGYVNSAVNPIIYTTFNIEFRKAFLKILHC
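Agonist mode: compounds alone added to overnight-plated D2 PathHunter cells for 90 min at 37 C, with 57 uM final dopamine (EC100) defining full response. Beta-arrestin recruitment detected by chemiluminescent reagent, read after 1 h at ambient temperature.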
CtBP-E1A inh: CtBP/E1A binding inhibition | activity change, % (concentration not given with the values) | 0.49% of 340,000 active | AlphaScreen GST-E1A/His-CtBP binding, 1536-well; stronger effect = lower value; control for the full effect not named in the record; in the data active means activity change below about -65%; inconclusive means about -30% to -65%; inactive means above about -30%; note: % is set by controls: 0 for no effect and ±100 for the full control effect
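GST-E1A and His-tagged CtBP (125 nM each as 5X stock) were preincubated with pin-transferred compound for 2 h at 37 °C in the dark, then glutathione donor and nickel acceptor beads were added for 1 h before AlphaScreen reading.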
Six1-Eya2 inh: blocks human Six1 binding to Eya2; Q15475+O00167; AlphaScreen GST-Six1/His-Eya2 binding, biochemical; stronger effect = lower value; control for the full effect not named in the record; activity change, % (concentration not given with the values); 0.56% of 360,000 active; AID 651725; in the data active = activity change below about -65%; inconclusive = about -30% to -65%; inactive = above about -30%; note: % is set by controls: 0 for no effect and ±100 for the full control effect
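Six1/Eya2 binding was read as AlphaScreen signal after compounds were pinned into GST-Six1 plus His-tagged Eya2 (5X stock 250/500 nM) in pH 8.0 Tris/NaCl/TCEP buffer, beads added, then incubated 1 h, 37 C, dark.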
The depositor's hits bear a star; ? = inconclusive; · = no result given; & = joins results of further samples; [ ] = another dose, or the depositor's remark.

SMILES,TRPML1 agonist,Six1-Eya2 inh,CtBP-E1A inh,PINK1 modulator,TRPML1 blocker,D2 ag
Cc1c(-c2cccs2)[n+](=O)c2c(n1[O-])CCC2,0.2,6,10,0.2%,-1,-0.1
CCCSc1nnc(CNS(=O)(=O)c2ccc(C)cc2)n1C,0.3,30,6,2.4%,-9,-3.0
Cc1ccc(S(=O)(=O)N2CCN(CC(=O)Nc3ccccc3C(=O)NC3CC3)CC2)cc1,0.9,-3,2,-0.7%,3,-1.8
Cc1c(Cl)cccc1NC(=O)Cn1c(=O)nc(-c2ccccc2)c2ccccc21,1.1,·,·,-0.9%,-21,·
Cc1ccc(NC(=O)c2cccs2)cc1NC(=O)c1ccc(F)cc1,0.5,-3,-4,-0.1%,-14,9.8
COc1ccc(C(=O)NCCCCCCNC(=O)c2ccc(OC)cc2)cc1,-0.7,3,0,12%,1,-0.7
CCN(CC)S(=O)(=O)c1ccc2oc(Nc3ccc(OC)cc3OC)nc2c1,-1.4,-16,11,6.0%,0,-6.1
COc1cccc(N2CC(NS(=O)(=O)c3cccnc3)CC2=O)c1 (stereo unspecified),-0.3,-4,0,1.9%,41,-3.0
Cn1c(CNC(=O)c2ccc(Cl)cc2)nnc1SCC(=O)Nc1sc2c(c1C#N)CCCC2,1.0,3,1,16%,3,-3.2
CCCCn1c(N)c(N(Cc2ccccc2OC)C(=O)CCSC)c(=O)[nH]c1=O,0.3,0,7,-2.0%,3,0.5
COc1cccc(N(C(=O)CS(=O)CC(=O)Nc2ccc(F)cc2)C(C(=O)NC2CCCCC2)c2cccs2)c1 (stereo unspecified),1.0,5,0,-0.2%,23,0.2
CC(=O)c1cccc(NC(=O)N[C@@H](CC(C)C)C(=O)O)c1,0.4,5,1,2.7%[38.3 µM],-3,-1.6
O=C(Nn1c(C2CCCCC2)nc2ccccc2c1=O)c1ccc([N+](=O)[O-])cc1,1.7,-8,0,0.6%,0,12
CCC(=O)c1c(NC(CC)CO)cc(C)oc1=O (stereo unspecified),0.2,18,-3,4.8%,1,-2.1
O=C(CSc1nnnn1-c1ccc(F)cc1)Nc1ccc(N2CCOCC2)c(Cl)c1,3.3,-4,9,?,2,-1.4
Cc1cc(C(=O)O)c2ccccc2n1,0.4,2,3,·,-1,1.6
CCn1cc(C(=O)OCC(=O)c2cc(C)n(-c3ccc(OC(F)F)cc3)c2C)c(=O)c2ccc(C)nc21,2.6,-3,1,25%,35,-0.4
CCOc1cc(/C=C2\SC(=S)N(NS(=O)(=O)c3ccc(C)cc3)C2=O)ccc1O,0.7,-9,·,-1.2%,9,-9.5
CC1CCN(C(=O)c2cnn(-c3cccc(Cl)c3)c2C2CCN(C(=O)OC(C)(C)C)CC2)CC1,-0.5,·,·,-1.2%,0,·
C/C(=N/NS(=O)(=O)c1cccc([N+](=O)[O-])c1)c1c[nH]c2ccccc12,1.7,-4,-4,-0.6%,12,7.0
COc1ccc2cc(C3=CC(=O)C[C@H](c4ccc5c(c4)OCO5)C3)ccc2c1,-0.3,-20,·,1.1%,-1,-0.5
NC(=O)c1ccccc1N=Cc1ccccn1,0.3,-2,-10,·,6,1.3
COc1ccc(CCNC(=O)C(=O)NN=C2CCCCCCC2)cc1OC,2.6,2,-3,1.4%,7,-2.5
Nc1cccc2c1C(=O)N(CCOc1ccccc1F)C2=O,0.2,38,37,0.6%,-13,-1.9
CCc1nnc2c3ccccc3nc(N3CCN(c4cc(C)ccc4C)CC3)n12,0.9,·,·,1.7%,6,·
Cc1ccc(-c2nc3ccc(Cl)cc3n2OC(C)C(=O)O)cc1 (stereo unspecified),1.0,-3,-2,1.0%,10,-2.5
O=C(CCNC(=O)c1ccc([N+](=O)[O-])cc1)Nc1ccc(N2CCOCC2)cc1N1CCOCC1,0.1,4,·,-1.5%,-7,3.0
O=C(O)CCSc1nnc(SCC(=O)NCC(F)(F)F)s1,-0.7,1,5,0.6%,6,-1.5
O=C(N/N=C/c1ccc2c(c1)OCO2)c1cc(-c2ccco2)nc2ccccc12,0.9,-11,-14,8.4%,5,-2.7
CCc1noc(C)c1C(=O)OC(C)C(=O)Nc1ccc(Cl)cn1 (stereo unspecified),0.3,0,·,12%,6,-2.6

Molecules listed so far that contain a COOH group:
SMILES,TRPML1 agonist,Six1-Eya2 inh,CtBP-E1A inh,PINK1 modulator,TRPML1 blocker,D2 ag
CC(=O)c1cccc(NC(=O)N[C@@H](CC(C)C)C(=O)O)c1,0.4,5,1,2.7%[38.3 µM],-3,-1.6
Cc1cc(C(=O)O)c2ccccc2n1,0.4,2,3,·,-1,1.6
Cc1ccc(-c2nc3ccc(Cl)cc3n2OC(C)C(=O)O)cc1 (stereo unspecified),1.0,-3,-2,1.0%,10,-2.5
O=C(O)CCSc1nnc(SCC(=O)NCC(F)(F)F)s1,-0.7,1,5,0.6%,6,-1.5

Next part.
SMILES,TRPML1 agonist,Six1-Eya2 inh,CtBP-E1A inh,PINK1 modulator,TRPML1 blocker,D2 ag
CCOc1ccccc1NC(=O)C(OC(=O)c1ccc(CC)cc1)c1ccccc1 (stereo unspecified),0.9,14,15,6.7%,-12,0.9
Cc1ccccc1NC(=O)CSc1nnc(CNC(=O)c2ccco2)n1C,-0.2,0,8,2.5%,-10,2.9
Cc1ccnc(NC(=O)Nc2ccc(Br)cc2Cl)c1,0.0,-18,-13,0.7%,-1,-0.4
CCc1nnc(NC(=O)c2ccc(-c3ccccc3Cl)o2)s1,0.5,-3,7,·,0,-5.2
C=CCN1C(=O)C(=O)N(CC(=O)NCC(=O)Nc2ccc(F)c(F)c2F)C1=O,0.2,8,·,3.1%,-2,0.3
O=C1C(=O)N(CCS(=O)(=O)c2ccccc2)c2ccc(Cl)cc21,0.7,9,9,-0.5%,41,-20
Cc1nn(CC(=O)Nc2ccccc2C(F)(F)F)c(=O)c2cccn12,-0.5&0.8,-2,·,0.0%&1.6%,33&-3,0.3
C=CC[C@@H](Cc1ccc(F)cc1)C(=O)OC[C@@H]1CCCN1C(=O)[C@@H](CC=C)CC(=O)N[C@@H](CO)Cc1ccccc1,0.1,-3,-19,0.4%,-14,-0.4
Cc1cc(C)c(-c2csc(-c3cc4ccccc4oc3=O)n2)cc1C,-0.9,·,·,2.2%,-1,·
NC(N)=NC1=NC(=O)C(Cc2ccccc2Cl)S1 (stereo unspecified),-0.4,4,9,2.9%,19,3.0
COc1ccc(Cl)cc1NC(=O)CSc1ncnc2c1oc1ccccc12,0.6,-1,·,5.6%,22,-2.4
COc1ccc2[nH]c(O)c(N=NC(=O)Cc3cccs3)c2c1,0.9,-28,-17,4.3%,-9,-2.1
CN(C(=O)c1ccc(NC(=O)C2CCCN(C(=O)OC(C)(C)C)C2)cc1)C1CCC1 (stereo unspecified),0.6,-2,·,3.1%,7,-0.6
CCOc1ccc(NC(=O)C2C(C(=O)O)C3(Cl)C(Cl)=C(Cl)C2(Cl)C3(Cl)Cl)cc1 (stereo unspecified),-0.3,-7,-6,-1.9%,1,1.0
O=C(/C=C/c1ccc(Cl)cc1)N(c1ccccn1)C1CCCCC1,3.3,5,16,4.9%,23,-0.2
O=[N+]1C2=C(CCCC2)N([O-])C12CCCC2,0.5,4,10,·,-3,3.7
O=C(CCCc1nc(-c2ccc(Cl)cc2)no1)NCC1CCCO1 (stereo unspecified),-1.3,-21,0,-0.2%,1,-0.1
CC(=O)Nc1ccccc1NS(=O)(=O)c1ccccc1[N+](=O)[O-],1.8&-0.6,1,-1,-1.2%&0.1%,-16&2,-5.2
O=C(CSc1nccc(=O)[nH]1)c1c[nH]c2ccccc12,·,1,-1,-0.8%,·,-3.9
O=C(NCCCCc1ccccc1)C12CN(Cc3ccccc3)CC1C(c1cccc([N+](=O)[O-])c1)=NO2 (stereo unspecified),0.8,-30,-15,-0.6%,-12,-0.4
CC(=O)n1cc(/C=N/NC(=O)c2sc(C)nc2C)c2ccccc21,4.6,-17,?,0.0%,17,0.2
Cc1cccc(N(Cc2ccc(Cl)cc2)S(C)(=O)=O)c1,0.5,7,11,4.7%,10,11
COc1ccc(/C=N/NC(=O)c2cccc(C(F)(F)F)c2)cc1,-0.1,-1,4,-0.8%,2,-7.4
CN(C)S(=O)(=O)c1ccc(Cl)c(NC(=O)CSc2nc3c(cc2C#N)C(=O)CC(C)(C)C3)c1,-0.5,6,1,3.7%,-10,-6.0
O=c1[nH]c2c(s1)C(c1ccc(O)cc1)C1C3CCC(C3)C1S2 (stereo unspecified),0.9,-15,-8,8.6%,-12,3.4
Cn1nc(C(=O)OCC(=O)c2ccccc2)c2ccccc2c1=O,3.7,-2,4,0.0%,-4,-4.1
CCc1nn(-c2ccccc2)c(N)c1-c1ccc(OC)c(OC)c1,0.1,-10,-10,5.3%,5,-3.8
CC(=O)N(c1ccc2oc(=O)sc2c1)S(=O)(=O)c1ccc(C)cc1,0.6,0,-8,0.5%,5,1.2
O=C(Cn1cc2c(n1)CCCCC2)Nc1ccccc1Cl,0.0,-2,7,12%,-3,0.5
O=[N+]([O-])c1cccc(S(=O)(=O)Nc2cccc(-c3ccc(N4CCCC4)nn3)c2)c1,0.9,-24,-4,-0.4%,1,-0.3

Limited to CtBP-E1A inh and TRPML1 blocker, for some of the entries so far:
mol	CtBP-E1A inh	TRPML1 blocker
CC(=O)Nc1ccccc1NS(=O)(=O)c1ccccc1[N+](=O)[O-]	-1	-16&2
Cc1ccnc(NC(=O)Nc2ccc(Br)cc2Cl)c1	-13	-1

More results:
SMILES,TRPML1 agonist,Six1-Eya2 inh,CtBP-E1A inh,PINK1 modulator,TRPML1 blocker,D2 ag
Cc1ccc2nsnc2c1NS(=O)(=O)c1c(C)ccc2nsnc12,1.2,-1,2,-0.1%,-6,0.9
Cc1ccc(NCC(=O)Nc2cccc(F)c2)cc1S(=O)(=O)N1CCCCCC1,1.3,17,-12,0.0%,21,-2.8
CCN(CC)C(=O)Cn1cnc2sc(C(=O)N3CCN(Cc4ccc5c(c4)OCO5)CC3)c(C)c2c1=O,-0.3,6,-16,-1.1%,12,-2.4
CCOC(=O)C1CCCN(C2CCN(Cc3nc(-c4ccccc4)no3)CC2)C1 (stereo unspecified),-0.2,0,-1,1.6%,1,0.2
O=S(=O)(NC1CCCCCC1)c1cccc(Cl)c1,0.2,2,7,0.6%,2,-0.6
C#CCn1ccc(O)c(Cc2c(F)cccc2Cl)c1=O,0.3,9,10,2.2%,3,-4.5
CCC1(C)COC(c2ccc3c(c2)OCO3)OC1 (stereo unspecified),-0.5,8,2,10%,-9,-1.5
Cc1cc(NC(=O)CSc2nnc(COc3ccccc3)n2Cc2ccco2)no1,3.3,7,-4,-1.2%[38.3 µM],-7,0.1
O=C(Nc1cnccn1)c1ccncc1,0.3,4,8,16%[38.3 µM],-4,-0.9
